# HSD17B inhib = blocks hydroxysteroid 17-beta dehydrogenase activity; AID 893; recombinant HSD17B10, NADH fluorescence kinetic; many of its hits are not listed in these tables; hit rate 7.6% among 75,000; Q99714; Potency, µM (top dose mostly 57.1 µM), for the others: at the highest dose activity change, negative = inhibition, usual class: inhibitors; active = well fitted inhibition curve with a large enough effect; inconclusive = small, poorly fitted or top-dose-only effect; inactive = no such curve, though single readings can be large or run the other way;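 note: the protocol describes HADH2 (HSD17B10) and not the HSD17B4 of the title; nearly all actives have a fitted effect of over 70% in size; most hits overshoot -100% by far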
#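 Enzyme plus compound, 15 min room temperature; substrate mix added (NAD+ 1 mM, beta-hydroxybutyryl-CoA 90 uM final); plates read kinetically for NADH fluorescence. HADH2 was His-tagged, E. coli-derived, 20 nM.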
# Starred values were filed as active, the others as inactive; ? = inconclusive; [ ] = remark or other dose. % is set by controls: 0 for no effect and ±100 for the full control effect; potency is the fitted concentration of half-maximal effect. The list is partial; rates above refer to the full screens.
no. | SMILES | HSD17B inhib
1 | Nc1nc2c(C(=O)NCc3cccs3)nnn2c2cccc(Cl)c12 | ?
2 | CCCn1c2c(c(O)c(C(=O)Nc3ccccc3)c1=O)CCCC2 | 14%
3 | O=S(=O)(c1ccccc1S(=O)(=O)N1CCCCC1)N1CCCCC1 | 3%
4 | O=c1cnc2cnc(Oc3ccccc3)nc2n1C[C@H]1CCCO1 | 1%
5 | O=C(O)c1cc(-c2ccccc2)c(N2CCOCC2)s1 | -21%
6 | CC(=O)Nc1ccccc1N(C)S(=O)(=O)c1ccc(C)cc1 | 2%
7 | CCCOc1ccc(C(=O)N2CCCc3ccccc32)cc1 | -2%
8 | CCOC(=O)Nc1ccc2c(c1)nc(CN1CCN(C(C)=O)CC1)n2C | 7%
9 | CCN(CC)c1nc(-c2nn[nH]n2)nc(N(CC)CC)n1 | -1%
10 | COc1ccc2oc(=O)cc(C)c2c1 | 32µM*
11 | COc1c(O)cc2c(-c3ccccc3)cc(=O)oc2c1OC | 5%
12 | O=C(O)C1C2C=CC3(CN(c4cccc(C(F)(F)F)c4)C(=O)C13)O2 (centres undefined) | 18%
13 | Cc1ccc(S(=O)(=O)N(C)CC(=O)N2CCN(c3ccccn3)CC2)cc1 | ?
14 | CCC1CCCCN1C(=O)CSc1nnc(-c2ccc(OC)cc2)o1 (centres undefined) | 6%
15 | COCCNS(=O)(=O)c1ccc2c(c1)oc(=O)c1cc(S(=O)(=O)NCCOC)ccc12 | -4%
16 | CC(=O)c1ccc(Oc2ncnc3sccc23)c(CN2CCOCC2)c1 | -4%
17 | Fc1ccc(F)c(CN2CCN(c3ncccn3)CC2)c1 | -7%
18 | Cc1nn(-c2ccccc2)c(=S)n1-c1ccccc1 | -2%
19 | Nc1nc(N)c(-c2cccc(C(F)(F)F)c2)c(Cc2cccc(C(F)(F)F)c2)n1 | -1%[11.4 µM]
20 | COCCNC(=O)CSCc1c(F)cccc1Cl | 6%
21 | FC(F)(F)C12CC(c3ccccc3)=NCCN1CCN2 (centres undefined) | -24%
22 | Cc1cnc(C)c(N2CCC(C(=O)NC(C)c3cccs3)CC2)n1 (centres undefined) | -10%
23 | CS(=O)(=O)c1ccc2nc(NC3(C(F)(F)F)N=C4SCCN4C3=O)sc2c1 (centres undefined) | -3%
24 | COc1ccc(C(=O)N2CCN(S(=O)(=O)c3ccc(C)cc3C)CC2)cc1OC | 4%
25 | Cn1c(NCCCN2CCOCC2)nc2c1c(=O)n(Cc1ccc(Cl)cc1)c(=O)n2C | -21%
26 | COc1ccc(NC(=O)N2CC3(CCN(S(=O)(=O)c4ccccc4)CC3)C2)cc1 | 9%
27 | CCCC(C)C(=O)Nc1ccc2c(c1)OCCO2 (centres undefined) | ?
28 | Cc1ccc(S(=O)(=O)N(C)CC(=O)NC2CC(C)(C)NC(C)(C)C2)cc1 | 5%
29 | CC(=O)c1cccc(-n2nnnc2SCC(=O)N2CCCC2)c1 | 6%
30 | Cc1c(OCc2ccc(C(=O)O)o2)ccc2c3c(c(=O)oc12)CCC3 | 25µM*
31 | O=C(c1ccccc1NS(=O)(=O)c1cccs1)N1CCOCC1 | 2%
32 | C[C@]12CC[C@H]3c4ccc(O)cc4CC[C@@H]3[C@H]1C/C(=N/O)[C@H]2O | 12%[11.4 µM]
33 | c1coc(C2Nc3cccc4cccc(c34)N2)c1 | 2µM*
34 | Oc1ccccc1-c1cc(-c2ccccc2Cl)[nH]n1 | -4%
35 | CCCc1cc2c(n1Cc1cc(F)cc(F)c1)C(C)C1CN(C(=O)c3ccccc3)C(C)(C(=O)OC)C21 (centres undefined) | -6%
36 | C=CCOC(=O)C(C(C)=O)C(NC(=O)OC)c1ccc2ccccc2c1 (centres undefined) | 3%[11.4 µM]
37 | CCSc1nnc(CNc2ccc(F)cc2)n1CC1CCCO1 (centres undefined) | 0%
38 | CCCOC(=O)CN1C(=O)c2ccccc2C1=O | 22%
39 | N#CC(C(=O)OC1CCCCC1)c1nc2ccccc2nc1N1CCCCC1 (centres undefined) | -3%
40 | O=C(CSc1ncnc2c1oc1ccccc12)Nc1cccc(F)c1 | 1%
41 | CCC(=O)N1CCc2cc(Br)cc(S(=O)(=O)N3CCCCCC3)c21 | 3%
42 | FC(F)(F)c1cccc(-c2ccc(-c3csnn3)o2)c1 | -3%
43 | COc1ccc2c(c1)C(C)CC(C)(C)N2C(=O)CSc1ncn[nH]1 (centres undefined) | -2%
44 | CCC(C)NC(=O)C1CCN(S(=O)(=O)CC)CC1 (centres undefined) | 6%
45 | N#Cc1ccc(Oc2cccc(C(=O)O)c2)cc1C#N | 1%
46 | Cc1ccc(N(C)C)cc1 | 1%
47 | COc1ccc(F)cc1CN1CCN(C(=O)CCC(=O)Nc2nnc(C(C)C)s2)CC1 | 5%
48 | COc1ccc(NC(=O)CCC2CCCC2)cc1OC | 9%
49 | COC(=O)c1ccc(NC(=O)C2C3CCC(C3)C2C(=O)O)cc1 (centres undefined) | 10%
50 | O=C(NCc1ccco1)c1ccccc1NS(=O)(=O)c1ccc2c(c1)OCCO2 | 32µM*

# Other entries.
no. | SMILES | HSD17B inhib
51 | Nc1nc(N2CCOCC2)nc2ccccc12 | 25µM*
52 | CC(C)(C)OC(=O)N1CCOCCOCCN(C(=O)OC(C)(C)C)CCOCCOCC1 | -18%
53 | COc1ccc(C(=O)N2CCN=C2SCc2cccnc2)c(OC)c1 | -1%
54 | CCCCn1c(NC(C)CC)nc2c1c(=O)[nH]c(=O)n2C (centres undefined) | 4%
55 | CC1(C)CC(=O)C2=C(C1)N(Cc1cccnc1)C(=O)C2(NC(=O)C1CC1)C(F)(F)F (centres undefined) | 0%
56 | Cc1csc(SCC(=O)Nc2cc(C(C)(C)C)nn2-c2ccccc2)n1 | 8%
57 | CC[N+]1(C)[C@@H]2CC[C@H]1CC(OC(=O)[C@H]1CC[C@@](C(=O)OC3C[C@H]4CC[C@@H](C3)[N+]4(C)CC)(c3ccccc3)c3ccccc31)C2 (some centres undefined) | -2%[25.6 µM]
58 | COc1cc(C(=O)NCCc2cn3ccc(C)cc3n2)cc(OC)c1OC | -17%
59 | O=C(c1ccccc1-c1ccccc1)N1CCN(c2ccccn2)CC1 | -19%
60 | CCCCn1c(=N)n(CC(O)COc2cccc(C)c2)c2ccccc21 (centres undefined) | 5%
61 | c1ccc(Cn2ncc3c2ncn2c(-c4ccncc4)nnc32)cc1 | -13%
62 | O=C(c1cc(F)c(F)cc1Cl)N1CCCCC1 | 4%
63 | Cn1c(=O)n(Cc2ccccc2)c(=O)c2c1nc1n2CCS1 | 0%
64 | Cc1occc1C(=O)NCCCc1ccccc1 | -18%
65 | O=C(Nc1cnn(Cc2ccc(F)cc2)c1)c1cc(-c2cccs2)on1 | 25µM*
66 | COc1ccc(Br)cc1S(=O)(=O)n1ccnc1C | 2%
67 | Cc1n[nH]c(C)c1S(=O)(=O)N1CCCC(C(=O)NC2CCCc3ccccc32)C1 (centres undefined) | -16%
68 | C=CCn1c(SCC(=O)Nc2ccccc2)nnc1-c1cccc(S(=O)(=O)N2CCOCC2)c1 | 14%
69 | O=C(c1ccc(S(=O)(=O)N2CCOCC2)cc1)N(c1ccccc1)C1C=CS(=O)(=O)C1 (centres undefined) | 10%
70 | CC1(C)Cc2c(sc3c2c(=N)n(Cc2ccco2)c(=O)n3CC(=O)Nc2cccc(Cl)c2)CO1 | -17%
71 | O=C(NC1CCC(C(=O)O)CC1)OCc1ccccc1 (centres undefined) | 3%
72 | Cc1nn(-c2ccccc2)c2c1C1(C(=O)N(C)c3ccccc31)N(c1ccccc1)C(=O)N2 (centres undefined) | 6%
73 | Cc1csc(NC(=O)CN(C)S(=O)(=O)c2cccc3cccnc23)n1 | -2%
74 | O=C(Nc1ccccc1)N1CC2(CCN(C(=O)c3cccc(F)c3)CC2)C1 | 3%
75 | CC(=O)N1CCc2cc(S(=O)(=O)NC(CC(C)C)C(=O)Nc3cc(C(=O)O)ccc3C)ccc21 (centres undefined) | 12%
76 | OC(COc1ccccc1)Cn1cc(Br)cn1 (centres undefined) | 7%
77 | O=C(Nc1cccc(F)c1)N1CC[C@@]2(CCCN(C(=O)c3cc(C(F)(F)F)cc(C(F)(F)F)c3)C2)C1 | 3%
78 | CCCOc1ccc(N2C(=O)CC(NCCCN3CCC(C(N)=O)CC3)C2=O)cc1 (centres undefined) | 1%
79 | Cc1cccc(CSc2ncnc3nc[nH]c23)c1 | -4%
80 | CCN(CC)CCCNC(=O)C1c2ccccc2C(=O)N(C)C1c1ccc(OC)cc1 (centres undefined) | 4%
81 | Cc1cc(C)nc(NS(=O)(=O)c2ccc(NC(=O)c3cccs3)cc2)n1 | -4%
82 | S=C1NCN2CCN(CC2)CNC(=S)C(=S)NCN2CCN(CC2)CNC1=S | 1%[11.4 µM]
83 | C[C@]1(c2ccccc2)OC(C(=O)O)=CC1=O | -2%
84 | NCCNc1cccc2ccccc12 | 32µM*
85 | Cc1nc(N2CCN(Cc3ccc4c(c3)OCO4)CC2)nc2c1C(=O)CC(c1ccco1)C2 (centres undefined) | -4%
86 | CC(C)Sc1nc2c(c(=O)n1C)SC(C)C2 (centres undefined) | 7%
87 | CCN1C(=O)c2ccccc2S(=O)c2ccc(C(=O)N3CCCC3)cc21 (centres undefined) | -1%
88 | CCOn1c(=O)c(-c2cc3ccccc3o2)[n+]([O-])c2ccccc21 | -2%
89 | COc1ccc(Br)cc1C1SCCN1S(C)(=O)=O (centres undefined) | 11%
90 | c1ccc(/C(=N/Nc2nc3ccccc3s2)c2ccccn2)cc1 | -1%[11.4 µM]
91 | CC12CCC(C(=O)NCc3ccc4c(c3)OCO4)(CC1=O)C2(C)C (centres undefined) | -1%
92 | Cc1cc(NC(=O)C2CC=CCC2C(=O)O)no1 (centres undefined) | 12%
93 | COc1ccc(-c2nc(C)sc2CC(=O)O)cc1 | 1%
94 | CCOc1ccccc1NC(=O)C1CCCN1C(=O)OCc1ccccc1 (centres undefined) | 13%
95 | Cn1c(-n2c(CCCN3C(=O)c4ccccc4C3=O)nc3ccccc3c2=O)nc2ccccc21 | 9%
96 | CC(=O)NC1(c2cccc(F)c2)CCN(CC(=O)NC2CCCCC2)CC1 | 0%
97 | COc1ccccc1N1C(=O)C2CC(C)=C(C)CC2C1=O (centres undefined) | 5%
98 | COc1cc(C)c(C(C)C)cc1S(=O)(=O)N1CCOCC1 | 0%
99 | COCCCNC(=O)CCCn1c(=O)c2ccccc2n(CC(=O)Nc2c(C)cccc2C)c1=O | -10%
100 | COc1ccc(S(=O)(=O)Cc2ccc(C(=O)N3CCOCC3)o2)cc1 | 8%

# The listing continues:
no. | SMILES | HSD17B inhib
101 | CCOC(=O)C1=C(Nc2ccccc2)OCC1=O | -11%
102 | CCOC(=O)C1=C(C)NC(SCc2cc(=O)[nH][nH]2)=C(C#N)C1c1cccs1 (centres undefined) | ?
103 | Clc1ccccc1CNCC1CCC(CNCc2ccccc2Cl)CC1 (centres undefined) | -2%
104 | CCOc1ccc(C(=O)c2ccc(O)c(O)c2O)cc1 | ?

# Grouped by structure, the entries above containing fluorine.
no. | SMILES | HSD17B inhib
12 | O=C(O)C1C2C=CC3(CN(c4cccc(C(F)(F)F)c4)C(=O)C13)O2 (centres undefined) | 18%
17 | Fc1ccc(F)c(CN2CCN(c3ncccn3)CC2)c1 | -7%
19 | Nc1nc(N)c(-c2cccc(C(F)(F)F)c2)c(Cc2cccc(C(F)(F)F)c2)n1 | -1%[11.4 µM]
20 | COCCNC(=O)CSCc1c(F)cccc1Cl | 6%
21 | FC(F)(F)C12CC(c3ccccc3)=NCCN1CCN2 (centres undefined) | -24%
23 | CS(=O)(=O)c1ccc2nc(NC3(C(F)(F)F)N=C4SCCN4C3=O)sc2c1 (centres undefined) | -3%
35 | CCCc1cc2c(n1Cc1cc(F)cc(F)c1)C(C)C1CN(C(=O)c3ccccc3)C(C)(C(=O)OC)C21 (centres undefined) | -6%
37 | CCSc1nnc(CNc2ccc(F)cc2)n1CC1CCCO1 (centres undefined) | 0%
40 | O=C(CSc1ncnc2c1oc1ccccc12)Nc1cccc(F)c1 | 1%
42 | FC(F)(F)c1cccc(-c2ccc(-c3csnn3)o2)c1 | -3%
47 | COc1ccc(F)cc1CN1CCN(C(=O)CCC(=O)Nc2nnc(C(C)C)s2)CC1 | 5%
55 | CC1(C)CC(=O)C2=C(C1)N(Cc1cccnc1)C(=O)C2(NC(=O)C1CC1)C(F)(F)F (centres undefined) | 0%
62 | O=C(c1cc(F)c(F)cc1Cl)N1CCCCC1 | 4%
65 | O=C(Nc1cnn(Cc2ccc(F)cc2)c1)c1cc(-c2cccs2)on1 | 25µM*
74 | O=C(Nc1ccccc1)N1CC2(CCN(C(=O)c3cccc(F)c3)CC2)C1 | 3%
77 | O=C(Nc1cccc(F)c1)N1CC[C@@]2(CCCN(C(=O)c3cc(C(F)(F)F)cc(C(F)(F)F)c3)C2)C1 | 3%
96 | CC(=O)NC1(c2cccc(F)c2)CCN(CC(=O)NC2CCCCC2)CC1 | 0%

# Three records picked at random from the list so far, as already listed:
no. | SMILES | HSD17B inhib
7 | CCCOc1ccc(C(=O)N2CCCc3ccccc32)cc1 | -2%
58 | COc1cc(C(=O)NCCc2cn3ccc(C)cc3n2)cc(OC)c1OC | -17%
87 | CCN1C(=O)c2ccccc2S(=O)c2ccc(C(=O)N3CCCC3)cc21 (centres undefined) | -1%
